Screening data: PubChem, several laboratories
Beta apoptosis – blocks beta cell apoptosis; 300,000 tested, 0.8% active; AID 435005; INS-1E cytokine-induced death, ATP luminescence, 48 h; percent of positive-control rescue, neutral wells zero; protection from apoptosis, % (concentration not given with the values);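 active = all replicates at 75% or more, or half of them and the mean; inconclusive = half reach 75% but not the mean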;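 note: 0% = cytokine-treated negative control wells and 100% = positive control rescue; higher means more ATP so stronger rescue from cytokine killing; wells of about 40 µL received 100 nL stock; the first replicate is given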
T cruzi repl – blocks replication of Trypanosoma cruzi. T. cruzi beta-gal in NIH3T3, luminescence, 90 h. inhibition, % (concentration not given with the values). 300,000 tested, 1.4% active;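 active = mean inhibition across valid replicates above about 55%, limit read from the data; inconclusive = mean below that limit but half or more replicates reach it; inactive = mean below it, under half of replicates reach it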;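 note: signal also drops with host cell toxicity which is not excluded here; 0% = plate median of DMSO wells and 100% = zero luminescence signal; higher percent means less beta-gal luminescence so fewer parasites; stock transfer was 50 nL into about 50 µL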
ALR inh – inhibitors of human sulfhydryl oxidase ALR. purified ALR, DTT oxidation, H2O2 HRP-luminol luminescence. inhibition, % (concentration not given with the values). 290,000 tested, 3.8% active. AID 485317;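 active = mean and each replicate at 75% or more; inconclusive = only one of the two met; inactive = neither met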;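 note: stock transfer was 7.5 nL into about 7.5 µL; 0% = neutral wells and 100% = wells with inactivated enzyme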
Target sequence (P55789 whole entry, looked up): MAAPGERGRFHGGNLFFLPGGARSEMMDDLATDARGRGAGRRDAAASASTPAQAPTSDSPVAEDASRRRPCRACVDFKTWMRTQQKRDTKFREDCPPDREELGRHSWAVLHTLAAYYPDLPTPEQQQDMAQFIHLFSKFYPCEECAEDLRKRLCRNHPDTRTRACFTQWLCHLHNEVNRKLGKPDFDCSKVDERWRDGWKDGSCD
LANA-H2B inh – blocks KSHV LANA binding to histone H2A/H2B; inhibition, % (test concentration not listed); cell-free LANA-H2A/H2B peptide, fluorescence polarization; Q9QR71; 320,000 tested, 0.6% active; in the data active = inhibition mostly above about 10%, no sharp cut-off; inactive = mostly below about 6.7%;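 note: stock transfer was 7.5 nL into about 10 µL; 0% = median of vehicle wells and 100% = median of positive control wells; one replicate is shown; the record names a cut of 25% in any replicate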
Calb FLC – affects C. albicans growth with fluconazole. C. albicans CaCi-2 (fluconazole-resistant clinical isolate) + fluconazole, Alamar Blue growth, 48 h. growth inhibition, % (concentration not given with the values). 300,000 tested, 0.57% active. AID 1979;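 active = most replicates above 75%; inconclusive = exactly half above 75%; inactive = most below 75%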;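 note: all wells also contain fluconazole at 8 µg/ml as a sub-toxic cotreatment; 0% = median of DMSO wells and 100% = median of geldanamycin control wells; wells of about 8 µL received 7.5 nL stock; the first replicate is given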
Ecoli rRNA inh – inhibits bacterial ribosomal RNA function over humanized ribosomes; E. coli WT GFP vs humanized-ribosome RFP mutants, fluorescence, 24 h; stronger effect = lower value; DMSO median 0, no signal -100; GFP signal change (wild-type ribosome), % (test concentration not listed); 350,000 tested, 1.6% active;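 active = significant combined selectivity score with lowered wild-type GFP, culture density cut under 30%, mutant RFP and density less affected; inactive = any of these conditions unmet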; note: one replicate is shown; some compounds called inactive have numbers as strong as hits
A1 inh – inhibitors of the anti-apoptotic protein A1, read as caspase activation | MEF A1-2A-BIM cells, Caspase-Glo 3/7 luminescence, 3 h; percent of clofoctol response, vehicle zero | caspase activation, % (no concentration beside the values) | 330,000 tested, 0.066% active;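 active = over half of replicate activation scores above 10%, or exactly half above 10 with the replicate mean above 10; inconclusive = replicate mean below 10 yet half the replicates above 10; inactive = over half of replicates below 10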;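 note: wells of about 30 µL received 50 nL stock; many hits fall short of the cut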
B2AR ag – human beta-2 adrenergic receptor agonism by FAP. Am2.2-beta2AR cells, FAP receptor internalization, flow cytometry; reference of the scale not given here. response, % (no concentration beside the values). 340,000 tested, 0.43% active. AID 504454. P07550;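 active = response above a set limit, near 3 SD of response in nonfluorescent compounds, cut at about 42% in these data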;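 note: stock transfer was 100 nL into about 11 µL; a reference agonist was the positive control; negative values mostly stem from fluorescent compounds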
Target sequence (P07550 whole entry, looked up): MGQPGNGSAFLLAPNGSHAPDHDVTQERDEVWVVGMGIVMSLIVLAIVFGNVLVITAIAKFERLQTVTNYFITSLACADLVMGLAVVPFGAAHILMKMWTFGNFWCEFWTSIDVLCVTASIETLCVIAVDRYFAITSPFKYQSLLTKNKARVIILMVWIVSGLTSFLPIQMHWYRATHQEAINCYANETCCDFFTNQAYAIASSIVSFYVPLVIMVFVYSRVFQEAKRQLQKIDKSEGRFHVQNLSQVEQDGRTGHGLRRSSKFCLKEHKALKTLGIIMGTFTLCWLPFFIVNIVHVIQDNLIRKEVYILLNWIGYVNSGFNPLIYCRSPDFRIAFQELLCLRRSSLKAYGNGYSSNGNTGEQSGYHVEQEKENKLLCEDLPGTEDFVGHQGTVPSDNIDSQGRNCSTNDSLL
Ecoli rRNA inh OD600 – second read-out of Ecoli rRNA inh, no call of its own (marks repeat the call); OD600 change, %; measured here: OD600 growth;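 optical density of the mix in the first replicate; 0 = DMSO median and -100 = no signal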
Ecoli rRNA inh RFP – second read-out of Ecoli rRNA inh, no call of its own (marks repeat the call); RFP signal change, %; measured here: RFP humanized mutant strains;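 first replicate; 0 = DMSO median and -100 = no signal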
Starred values were filed as active, the others as inactive; u = inconclusive; x = no result given. The list is partial; rates above refer to the full screens.

SMILES	Beta apoptosis	T cruzi repl	ALR inh	LANA-H2B inh	Calb FLC	Ecoli rRNA inh	Ecoli rRNA inh OD600	Ecoli rRNA inh RFP	A1 inh	B2AR ag
Cc1ccnc(SCC(=O)c2cccs2)n1	2	-6	24	-3.1	-4	17	12	3.8	0.5	2
CCCCCCNC(=O)c1cc(-c2ccco2)nc2ccccc12	1	10	x	-3.3	1	x	x	x	0.0	-10
Cc1ccc(C(=O)CSc2nc3ccc(C(=O)NCCN4CCCCC4)cc3c(=O)[nH]2)cc1	-4	-11	x	-8.1	-4	6	4	-4.1	-1.5	-5
COc1cc(C)c(-c2cc(C(=O)O)c(C)o2)cc1C(C)C	3	-11	97*	-2.7	2	x	x	x	-0.2	3
O=C(Nc1nnc(-c2ccncc2)o1)c1ccccc1F	4	-7	1	-1.7	3	-2	-1	-1.2	0.3	-10
CN(c1ccccc1)S(=O)(=O)c1ccc(C(=O)NCCc2ccc(F)cc2)cc1	3	10	-2	2.0	1	-5	-29	-1.1	0.0	2
O=C(Nc1ccccc1C(=O)O)c1cccc(NS(=O)(=O)c2ccc(Br)cc2)c1	x	-8	13	0.5	10	-32	-48	5.7	0.6	0
O=C(CN1C(=O)CSc2ccc(S(=O)(=O)N3CCCCC3)cc21)NCc1ccccc1	-2	-6	4	56*	-4	-7	-6	-0.2	1.3	-7
COc1ccc(N(CC(=O)N2CCN(c3cccc(Cl)c3)CC2)S(=O)(=O)c2c(C)noc2C)cc1	3	28	2	-5.6	12	-2	-14	-0.6	0.5	8
COC(=O)c1ccccc1NC(=O)c1c(O)c2c([nH]c1=O)CCCC2	0	-8	-11	-5.9	1	x	x	x	-0.1	13
Nc1[nH]c(=O)nc(Nc2ccccc2)c1N=O	-12	0	-6	5.1	-5	30	8	10	0.6	-1
O=C(CN1CCCCC1)N1CCCc2ccccc21	-3	3	-2	5.0	8	5	-3	-5.9	0.6	-5
CCOC(=O)c1csc(Nc2nc3ccc(F)cc3s2)n1	22	u	x	2.3	3	x	x	x	-6.4	13
CN1C(=O)OC2(C)CCc3ccccc3C12C (centres undefined)	-3	-14	-11	-1.9	-21	x	x	x	-0.4	2
O=C(CCN1C(=O)/C(=C\c2ccccc2)SC1=S)NNC(=O)c1ccncc1	2	-20	-3	3.9	36	7	11	3.5	0.1	-3
Cn1c(=O)c(Sc2ccccc2)c(O)c2ccccc21	-13	0	7	-3.4	5	10	2	-1.1	-0.2	-2
CC(=O)N1N=C(c2ccccc2)CC1c1ccccc1[N+](=O)[O-] (centres undefined)	8	-34	-2	1.7	0	x	x	x	-0.4	-13
O=C(NC1=NCCS1)c1ccc(N2CCCC2=O)cc1	x	-3	1	3.4	6	25	25	2.4	-0.1	48*
O=C(CC1CCCC1)NNC(=O)c1ccc(Br)cc1	-4	x	x	-3.1	x	6	4	-1.0	0.3	39
O=C1NCN(c2ccccc2)C12CCN(c1nnnn1-c1ccccc1)CC2	3	-11	-3	-3.0	6	x	x	x	1.0	2
CC(C)(C)[C@@H]1COC(=O)[C@H](Cc2ccc(F)cc2)CC/C=C\C[C@@H](CC(=O)N(CCO)Cc2ccccc2)C(=O)N1	-5	x	3	-1.2	x	-3	-10	0.3	-1.0	-13
Cc1ccccc1OCC(=O)N(Cc1nc(-c2ccccc2)no1)C(C)C	-13	28	-1	-3.4	1	x	x	x	-0.1	1
COCCNC(=O)c1ccc(CS(=O)(=O)c2ccc(OC)cc2)o1	1	-10	-8	-8.9	10	11	13	-2.3	0.2	8
CCOc1ccc(NC(=O)[C@H](Cc2ccccc2)NC(=O)C2CCNCC2)cc1	-6	10	-3	-9.8	x	3	3	-2.1	0.2	-4
CCOC(=O)Cn1c(-c2cccnc2Cl)nc2cc(Cl)c(Cl)cc21	-5	1	-4	-2.3	-13	x	x	x	-0.8	-5

Random excerpt: six records from the list
SMILES	Beta apoptosis	T cruzi repl	ALR inh	LANA-H2B inh	Calb FLC	Ecoli rRNA inh	Ecoli rRNA inh OD600	Ecoli rRNA inh RFP	A1 inh	B2AR ag
CN(c1ccccc1)S(=O)(=O)c1ccc(C(=O)NCCc2ccc(F)cc2)cc1	3	10	-2	2.0	1	-5	-29	-1.1	0.0	2
COc1cc(C)c(-c2cc(C(=O)O)c(C)o2)cc1C(C)C	3	-11	97*	-2.7	2	x	x	x	-0.2	3
Cn1c(=O)c(Sc2ccccc2)c(O)c2ccccc21	-13	0	7	-3.4	5	10	2	-1.1	-0.2	-2
CN1C(=O)OC2(C)CCc3ccccc3C12C (centres undefined)	-3	-14	-11	-1.9	-21	x	x	x	-0.4	2
CCOc1ccc(NC(=O)[C@H](Cc2ccccc2)NC(=O)C2CCNCC2)cc1	-6	10	-3	-9.8	x	3	3	-2.1	0.2	-4
CCCCCCNC(=O)c1cc(-c2ccco2)nc2ccccc12	1	10	x	-3.3	1	x	x	x	0.0	-10

Next results follow.
SMILES	Beta apoptosis	T cruzi repl	ALR inh	LANA-H2B inh	Calb FLC	Ecoli rRNA inh	Ecoli rRNA inh OD600	Ecoli rRNA inh RFP	A1 inh	B2AR ag
Cc1cccc(C)c1NC(=S)Nc1ccc(F)cc1	4	-33	1	0.8	1	11	10	2.6	0.5	-10
CC1(C)Oc2ccc(NC(=O)C3COc4ccccc4O3)cc2O1 (centres undefined)	0	6	x	-5.4	1	x	x	x	-4.0	-5
NC(=O)c1nnn(-c2ccccc2)c1N	x	-5	-2	-3.9	-3	18	17	1.2	0.3	-2
Cc1ccccc1OCC(=O)Nc1ccccc1C(=O)NC1CC1	-9	-8	-4	1.3	2	10	4	-2.7	-0.7	13
COc1ccc(CCNC(=O)CSc2nnc(CNc3ccc(Cl)cc3)o2)cc1OC	-15	17	0	4.2	-1	x	x	x	-0.3	-2
CCc1ccc(NC(=O)C(C)n2nc(C)c([N+](=O)[O-])c2C)cc1 (centres undefined)	10	-7	-6	-0.6	-5	0	7	-0.8	0.0	3
COc1ccc(-c2nnc3c4ccccc4c(C)nn23)cc1	2	-10	7	1.9	-6	x	x	x	-3.9	-27
Cc1cnc(C(=O)Nc2nnc(C3CC3)s2)cn1	-3	-7	-8	-1.6	-7	x	x	x	0.0	-1
O=C(N/N=C/c1ccco1)c1ccncc1	-11	-13	-29	-0.2	-5	x	x	x	2.2	-1
Cn1nc(-c2ccccc2)c(-c2nc(-c3cccc(C(F)(F)F)c3)no2)c1Cl	-1	-9	-6	-3.2	3	4	3	-0.7	-0.2	6
COc1ccc(OCC(O)CNC(=O)Nc2ccc(C(C)(C)C)cc2)cc1 (centres undefined)	-1	4	2	-2.6	-6	6	7	0.4	0.0	11
COc1cccc(NC(=S)NCc2ccccc2)c1	-6	-26	10	6.1	4	-1	-5	-5.4	-0.1	-3
Cc1ccc(-c2nnn(CC(=O)Nc3nnc(C(C)C)s3)n2)cc1	x	-19	6	6.8	-14	5	4	-2.1	-1.0	-4
CCOC(=O)C1(CCOc2ccccc2)CCN(Cc2cccc(F)c2)CC1	x	14	x	-10	-4	-19	-21	1.2	2.1	-16
N#Cc1c(Nc2cccc(F)c2)sc2c(O)cc(=O)[nH]c12	-6	0	17	-4.1	-6	8	19	10	0.0	-4
CN(C(=O)CSc1nnc(C(F)(F)F)n1N)C1CCS(=O)(=O)C1 (centres undefined)	-9	-9	-10	-5.4	-2	14	12	-0.4	u	-10
CC(OC(=O)C(C)Oc1ccccc1)C(=O)Nc1ccc(S(=O)(=O)N2CCCCC2)cc1 (centres undefined)	-3	x	-3	0.7	x	-6	-12	0.9	-0.1	-5
O=C(C1CCCO1)N1CCN(C(c2ccccc2)c2ccccc2)CC1 (centres undefined)	1	-11	1	-1.7	3	x	x	x	0.4	-2
O=C(CCl)Nc1ccccc1Sc1ccccc1	-11	-11	4	1.3	-4	x	x	x	0.2	3
CCC(CC)NC(=O)COC(=O)CCC(=O)c1ccc(Cl)cc1	-8	-11	-23	-2.5	-4	2	2	1.6	-1.2	2
O=C(CNC(=O)/C(=C\c1ccc(F)cc1)NC(=O)c1ccccc1)OCc1ccccc1	-5	-15	-7	-0.4	-4	x	x	x	0.5	-6
COc1ccc(NS(=O)(=O)c2cccc(C(=O)NN=C(C)c3ccco3)c2)cc1	2	x	x	-3.3	x	3	10	6.2	-0.7	1
CCOC(=O)N1CCN(C(=O)CN(c2ccc(Oc3ccccc3)cc2)S(C)(=O)=O)CC1	-2	4	-15	2.5	50	x	x	x	-0.6	-39
O=C(CSc1nc2c(cnn2-c2ccccc2)c(=O)[nH]1)N1CCCCC1	4	35	9	0.0	1	-1	-9	-3.2	-0.4	10
CCOC(=O)C1Cn2c(nc3c(c2=O)C(C)(CC)Cc2ccccc2-3)S1 (centres undefined)	x	5	-12	-1.7	0	x	x	x	1.8	11

The list continues.
SMILES	Beta apoptosis	T cruzi repl	ALR inh	LANA-H2B inh	Calb FLC	Ecoli rRNA inh	Ecoli rRNA inh OD600	Ecoli rRNA inh RFP	A1 inh	B2AR ag
Cc1cccc(C(=O)OCC(=O)N2CCc3ccccc3C2)c1O	-7	x	3	0.7	x	-9	-20	-1.6	-0.7	-3
O=C(OCC(=O)c1cccs1)c1ccccc1	x	-5	x	-3.4	-8	x	x	x	-5.3	1
Cc1nc(=O)c(-c2ccccc2)c(C)n1CCO	-5	-18	-15	3.8	-3	x	x	x	0.5	6
COc1ccc(NC(=O)CCC(=O)OCc2ccc(C(=O)Oc3ccc(Cl)cc3)cc2)cc1	3	-27	-15	2.8	-7	x	x	x	0.2	4
Cc1ccc(/C=C2/NC(=O)N(Cc3ccccc3F)C2=O)o1	-4	12	x	4.4	3	9	-2	4.0	1.0	9
O=C(C1c2ccccc2C(=O)N2CCc3ccccc3C12)N1CCN(Cc2ccccc2)CC1 (centres undefined)	x	10	-1	-2.5	-11	x	x	x	0.4	15
